Source: PubChem
miR-21 FLuc: qHTS Assay for Modulators of miRNAs and/orActivators of miR-21. HeLa miR-21 FLuc reporter, luciferase, 48 h. Potency, µM (doses to about 38.3 µM), without a hit: at the top dose reporter change, positive = more light. 340,000 tested, under 10 active; active = well fitted rising curve with a large enough effect; inconclusive = small, poorly fitted or top-dose-only effect; inactive = no such curve, though single readings can be large or run the other way;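 note: % of control where 0% means no effect; miR-21 action dims this reporter so a rising signal means less miR-21 action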
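Using DMEM plus 10% FBS, HeLa miR-21-FLuc cells are incubated with test compounds (final up to about 40uM) for 48 hours; firefly luciferase signal is then imaged following reagent-mediated lysis.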
Rango complex inh: qHTS Assay for Inhibitors of Rango (Ran-regulated importin-beta cargo) - Importin beta complex formation. Importin subunit beta-1 (Homo sapiens), Q14974. hit rate 0.031% among 340,000. Potency, µM (titrated, usually from 92.2 µM), inactives show at the highest dose inhibition of complex formation. Rango CFP/YFP FRET sensor + importin beta, 45 min. AID 540263, 2011; active = rising FRET ratio curve, often small or poorly fitted; inconclusive = mostly compound fluorescence or quenching in the first reads; inactive = flat curves in all reads;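 note: potency is the fitted concentration of half-maximal effect; 0% = DMSO wells and 100% = buffer wells lacking importin beta; nearly all actives have a fitted effect of over 15% in size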
Target sequence (Q14974 whole entry, looked up): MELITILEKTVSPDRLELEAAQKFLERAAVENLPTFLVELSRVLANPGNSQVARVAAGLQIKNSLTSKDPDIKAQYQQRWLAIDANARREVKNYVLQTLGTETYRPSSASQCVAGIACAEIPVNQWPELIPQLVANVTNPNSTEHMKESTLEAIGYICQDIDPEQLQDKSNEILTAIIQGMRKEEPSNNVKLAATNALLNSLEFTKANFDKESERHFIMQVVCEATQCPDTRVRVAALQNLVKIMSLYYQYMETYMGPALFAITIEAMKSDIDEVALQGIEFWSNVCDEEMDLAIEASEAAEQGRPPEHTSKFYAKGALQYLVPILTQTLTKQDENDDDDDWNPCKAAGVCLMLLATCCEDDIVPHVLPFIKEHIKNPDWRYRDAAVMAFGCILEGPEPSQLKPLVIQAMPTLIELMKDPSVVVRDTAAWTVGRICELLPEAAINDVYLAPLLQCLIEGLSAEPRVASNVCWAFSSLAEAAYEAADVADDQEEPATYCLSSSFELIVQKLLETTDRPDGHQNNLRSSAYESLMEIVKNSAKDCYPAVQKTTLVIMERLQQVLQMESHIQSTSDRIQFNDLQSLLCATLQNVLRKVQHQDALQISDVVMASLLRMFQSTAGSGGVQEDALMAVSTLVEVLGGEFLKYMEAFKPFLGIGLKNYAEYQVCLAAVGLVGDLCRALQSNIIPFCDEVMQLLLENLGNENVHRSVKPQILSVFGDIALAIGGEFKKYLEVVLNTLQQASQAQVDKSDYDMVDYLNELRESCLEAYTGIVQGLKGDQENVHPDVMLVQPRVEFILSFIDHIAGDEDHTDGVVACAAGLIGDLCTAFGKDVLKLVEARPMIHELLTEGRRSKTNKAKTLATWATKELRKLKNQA
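Inhibition scored from the CFP 486 nm/YFP 530 nm FRET ratio 45 min after adding 0.125 microM importin beta to 50 nM Rango biosensor preincubated 5 min with compound (room temperature, PBS with DTT, Tween-20, BSA). No-importin wells as positive control.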
GLA inh pH 4.5: qHTS Assay for Inhibitors of Human alpha-Galactosidase at pH 4.5; Alpha-galactosidase A (Homo sapiens), P06280; purified enzyme, 4-MU-alpha-Gal fluorescence, pH 4.5; activity change, negative = inhibition, % at 105 µM; 230,000 tested, under 10 active; AID 1467, 2008; inconclusive = small, poorly fitted or top-dose-only inhibition, or a rising curve; inactive = flat fitted curve, though single readings scatter; no compound was filed as active;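 note: 0% = full activity with enzyme and -100% = basal without enzyme; dose as in the result columns while the protocol names 77 µM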
Rango dissoc inh: qHTS Assay for Inhibitors of RanGTP induced Rango (Ran-regulated importin-beta cargo) - Importin beta complex dissociation; Snurportin-1 (Homo sapiens) + GTP-binding nuclear protein Ran (Homo sapiens) + Importin …; Biochemical FRET Rango-importin beta, RanGTP-induced dissociation; Potency, µM (series often up to 46.1 µM), for the others: at the top dose activity change, negative = inhibition; hit rate 0.071% among 340,000; active means falling FRET ratio curve, often poorly fitted, with flat reads before Ran was added; inconclusive means other falling curves, or compound fluorescence or quenching; inactive means flat or rising ratio curve;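 note: potency is the fitted concentration of half-maximal effect; % of control where 0% means no effect; nearly all actives have a fitted effect of over 45% in size; -100% = wells without RanGTP and RCC1; the record marks most hits as doubtful in a second field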
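Rango/importin beta premix (0.1/0.25 uM final), PBS + 1 mM DTT + 0.02% Tween-20 + 0.1% BSA; cpd 5 min RT; FRET pre-read; + RanGTP-RCC1 (0.6 uM Ran, 2 mM GTP, 0.2 uM RCC1); 45 min RT; FRET post-read, ex 430, em 486/530 nm.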
An asterisk follows results filed as active; ? = inconclusive; / = not tested or not shown; & = joins results of further samples. A portion of the library, so the mix of outcomes need not match the whole.

SMILES	miR-21 FLuc	Rango complex inh	GLA inh pH 4.5	Rango dissoc inh
CN(C)C=Nc1nonc1-c1ccccc1	-9%	-4.1%	-4	2%
COc1ccc(C(=O)C2CCCN(C(=O)CCNC(C)=O)C2)cc1OC (stereo not drawn)	-6%	-1.8%	/	-1%
NCCC(=O)N1c2ccccc2Sc2ccccc21	-1%	0.5%	/	2%
Cc1ccsc1S(=O)(=O)N1CCC(CO)(CC2CCCCO2)CC1 (stereo not drawn)	-2%	4.6%	1	16%
CCCCC1=CC2=CC(=O)C(C)(OC(=O)CC)C(=O)C2=CN1CCc1ccc(Br)cc1 (stereo not drawn)	-3%	?	5&-23	?
CCOC(=O)c1cc(NC(=O)CN2CCCC2)cc(C(=O)OCC)c1	3%	1.4%	/	24%
COc1ccc(S(=O)(=O)N2CCC3(CC2)CC(=O)c2ccccc2O3)cc1OC	/	2.0%	/	-7%
CC(C)NC(=O)c1cnn2c1NC(c1cccs1)CC2C(F)(F)F (stereo not drawn)	-4%	-4.4%	-4	-3%
CCOC(=O)Cc1csc(SCC(=O)NC2CCS(=O)(=O)C2)n1 (stereo not drawn)	/	-1.6%	/	-1%
CNC(=S)N/N=C/c1ccc(-c2cc([N+](=O)[O-])ccc2Cl)o1	3%	0.6%	-4	1%
COc1ccccc1NC(=O)/C(C#N)=C/C=C/c1ccco1	13%	?	4	-16%
O=C(CCc1nc(-c2ccc(Cl)cc2)no1)OCc1ccc(Br)cc1	/	-0.6%	/	0%
Nc1nc(CSCCO)nc(Nc2ccccc2)n1	-15%	5.6%	-6	-7%
COc1ccc(NC(=O)CCC(=O)Nc2nnc(C3CCCCC3)s2)cc1	-5%	0.1%	/	-7%
CC(C)[C@H](NC(=O)c1ccco1)C(=O)OCC(=O)N1CCc2ccccc21	-27%	-1.7%	1	0%
CC(=O)NC(CC(=O)Nc1nc(C)cs1)c1ccccc1 (stereo not drawn)	-1%	-0.4%	14	-4%
CCNC(=O)COc1ccc(C=O)cc1OC	-3%	1.3%	9	24%
COCCNC(=O)c1ccc(N2CC3CC(C2)c2cccc(=O)n2C3)c(NC(=O)c2c(F)cccc2F)c1 (stereo not drawn)	-19%	1.1%	/	14%
O=C(OCC(=O)c1ccc[nH]1)c1ccc(Cl)nc1	/	-0.3%	/	12%
COc1ccc(C)c2sc(NC(=O)C3=COCCO3)nc12	-27%	/	2	/
COc1ccc(N2CCN(C(=O)COC(=O)CCc3ccccc3)CC2)cc1	/	2.0%	/	12%
COc1cc(/C=C/C(=O)O)cc(S(=O)(=O)Nc2ccccc2Oc2ccccc2)c1OC	-3%	8.4%	8	-6%
CSc1ccccc1OCc1cc(C(=O)N2CCc3[nH]cnc3C2c2ccccn2)no1 (stereo not drawn)	-10%	1.1%	/	-11%
Cc1ccc(-c2nc3cccnc3s2)cc1NS(=O)(=O)c1ccc2c(c1)OCCO2	-15%	?	2	?
COc1ccc(/C=C2\CCC(C3CCCC3)C2=O)c(OC)c1OC (stereo not drawn)	-2%	-3.6%	/	0%
CC1(c2nnc(-c3ccccc3)o2)CC(c2ccncc2)=NO1 (stereo not drawn)	-7%	-0.6%	5	-2%
CCOc1ccc(CSC(=N)N)cc1Cl	19%	0.3%	-9	2%
O=C(O)CN1C(c2ccccc2O)Nc2ccc(Br)cc2C1c1ccccc1 (stereo not drawn)	-5%	1.7%	-8	-13%
COc1ccc(C(=O)Nc2cccc(-c3cc4ccccc4oc3=O)c2)cc1[N+](=O)[O-]	-2%	3.3%	-16	12%
COc1ccccc1C(=O)N/C(=C\c1ccc(Br)cc1)C(=O)N1CCCC1	-19%	3.1%	0	-2%
CO/N=C\C(=N\Nc1ccc(OC)cc1)C(=O)c1ccccc1	-12%	-0.5%	-11	-13%
CSc1nnc(-c2sccc2OCc2ccccc2)n1C	-10%	0.9%	-2	-22%
CCOCCCNC(=O)C1CCCN(S(=O)(=O)CC)C1 (stereo not drawn)	-6%	-0.5%	7	9%
CC[C@]12c3[nH]c4cc(-c5ccco5)ccc4c3CCN1C(=O)[C@@H](CC(=O)NCC13CC4CC(CC(C4)C1)C3)C[C@@H]2C(=O)N1CCN(C(=O)c2ccco2)CC1	/	?	/	-10%
N/C(=N\c1nc2ccccc2o1)NC(=O)c1ccccc1NC(=O)c1ccccc1	-10%	?	8	11%
Cc1cc(O)c(C(C)C)cc1N=Cc1ccc(N(C)C)cc1	/	-1.8%	/	-6%
COc1ccc(O)c(C(=O)c2cnn(-c3ccccc3)c2)c1	-56%	-2.3%	/	-6%
CC1CCCCC1NC1=NCCS1 (stereo not drawn)	-7%	5.7%	7	-6%
CCN(C(=O)CN1C(=O)NC(CCSC)C1=O)C1CCS(=O)(=O)C1 (stereo not drawn)	/	-5.4%	/	-9%
CC1(C)Oc2ccc3ccc(=O)oc3c2/C(=C/Nc2ccc(O)cc2)C1=O	-1%	?	-9	-26%
Cc1cccc(C(=O)Nc2cc(OCc3cccc(F)c3)c(Cl)cc2Cl)c1	-24%	-2.8%	-1	1%
O=C(COC(=O)CNS(=O)(=O)c1cccc(Br)c1)NC(=O)Nc1ccc2c(c1)OCCO2	-33%	-4.9%	4	0%
COc1ccc(Cn2c(C)nc3c(c(=O)c4ccccc4n3C)c2=O)cc1	-6%	0.0%	-3	-3%
COc1ccc(NS(=O)(=O)c2ccc(Cl)s2)cn1	4%	?	5	6%
CC(=O)c1c(C)oc2c1cc(O)c1ccccc12	-21%	-0.1%	-13	5%
CC(C)(C)n1nc2c(c1NC(=O)c1ccccc1C(F)(F)F)CS(=O)(=O)C2	2%	-0.2%	/	-9%
COc1ccc(CC(=O)N/N=C(\C)c2ccccn2)cc1	17%	-4.5%	0	-9%
COc1c(O)ccc(/C=C(\C#N)c2nc3ccccc3[nH]2)c1[N+](=O)[O-]	-40%	?	-7	?
O=C(NCCc1cccs1)C1CC1	-5%	1.5%	3	1%
CC(=O)NCC(=O)OCC(=O)N1c2ccccc2Sc2ccccc21	-6%	-2.8%	0	-1%
O=C(Cc1cccs1)NCCc1ccc(Cl)cc1	-1%	3.1%	/	5%
CC(=O)Nc1ccc(S(=O)(=O)NC2=C(N3CCN(Cc4ccccc4)CC3)C(=O)c3ccccc3C2=O)cc1	6%	-3.9%&-1.2%	-1	2%&3%
COc1ccc2[nH]c(=O)c(CN(Cc3nnnn3CCc3ccccc3)CC3CCCO3)cc2c1 (stereo not drawn)	-16%	3.6%	-4	1%
COc1cc(/C=C/c2cccc[n+]2C)ccc1OCC(=O)Nc1ccccc1C	4%	-0.2%	/	-8%
Cc1ccc(C2C3C(=O)N(c4ccc(C)cc4)C(=O)C3N3CCCN23)cc1 (stereo not drawn)	5%	0.1%	3	?
CC(C)Sc1nc(-c2cccs2)nc2c1c(=O)n(C)c(=O)n2C	0%	/	-8	/
C=CCOC(=O)C1=C[C@H](c2ccccc2)[C@@H](CCCO)[C@H](OCC)O1	2%	?	4	-19%
CSc1ccccc1NC(=O)CN(C)CC(=O)c1[nH]c(C)c(C(C)=O)c1C	/	0.7%	/	1%
CCOC(=O)C1CCN(C(=O)Cc2c(C(=O)O)n(C)c3ccccc23)CC1	-5%	?	2	?
O=c1[nH]c2ccccc2n1C1=CCNCC1	2%	3.7%	5	10%
More entries.
SMILES	miR-21 FLuc	Rango complex inh	GLA inh pH 4.5	Rango dissoc inh
O=C(NC1CCCC1)C(c1ccncc1)N(Cc1ccco1)C(=O)c1ccc(-c2ccccc2)[nH]1 (stereo not drawn)	13%	?	-4	-17%
C[C@@]12CCC=C[C@H]1[C@H](c1ccc3ccccc3c1/C=C/c1ccccc1)N(Cc1ccccc1)C2=O	2%	0.5%	5	-6%
C=CC[C@@H](CC(=O)N[C@H](CO)Cc1ccccc1)C(=O)N[C@H](COC(=O)[C@@H](CC=C)CC(=O)OC(C)(C)C)Cc1c[nH]c2ccccc12	/	-0.8%	/	21%
COc1ccc(NC(=O)c2cc3c(s2)CCC3)cc1S(=O)(=O)N1CCOCC1	10%	-7.2%	-3	-17%
CCOCC(O)CNc1ccccc1 (stereo not drawn)	-8%	?	-1	-12%
CCN(C(=O)COC(=O)c1cc(-c2ccccc2)nn1-c1ccccc1)C1CCS(=O)(=O)C1 (stereo not drawn)	5%	-1.3%	-6	13%
Cc1nn(Cc2ccc(Cl)cc2Cl)c(Cl)c1/C=C/C(=O)OCC(=O)NCC(F)(F)F	2%	-0.7%	11	-4%
Cc1noc(C)c1CSCC(=O)Nc1nc2ccc(Oc3ccccc3)cc2s1	-4%	2.4%	-9	7%
Cc1n[nH]c(C)c1S(=O)(=O)N1CCCC(C(=O)NCc2cccs2)C1 (stereo not drawn)	-1%	0.2%	-3	12%
CCN(CC)S(=O)(=O)c1ccc(OC(C)C)c(N)c1	4%	2.0%	-9	9%
NC1=C(Cl)C(=O)c2ccccc2C1=O	/	5.5%	/	-2%
COc1cccc(C(=O)Nc2ccc(NC(=O)c3ccco3)nc2)c1	-38%	0.0%	-12	7%
CCC1CN(C(=O)NCc2ccc(C)cc2)c2cc(C)ccc2O1 (stereo not drawn)	?	-2.3%	/	10%
Cc1ccc2c(c1)C(c1ccccc1)N(C(=O)CC(C)C)CC(=O)N2 (stereo not drawn)	0%	0.0%	/	-18%
CCN(CCCNC(=O)C1CCN(S(=O)(=O)CC)CC1)c1ccccc1	-3%	5.7%	-15	-15%
O=C(COC(=O)CCc1ccc(S(=O)(=O)N2CCOCC2)cc1)NC1CCCC1	0%	1.9%	6	15%
Cc1cc(C)cc(NC(=O)CN(c2ccc(F)cc2)S(C)(=O)=O)c1	1%	-1.2%	3	?
Cc1c(NC(=O)Cn2cc([N+](=O)[O-])cn2)c(=O)n(-c2ccccc2)n1C	-3%	-0.3%	6	12%
CSc1ccccc1OCc1cc(C(=O)N[C@H]2CCCCNC2=O)no1	-52%	-0.3%	/	14%
COc1ccc(CC2(C)OC(c3ccc(C)cc3)=NN2C(C)=O)cc1 (stereo not drawn)	-2%	1.6%	0	3%
Cn1c(=O)c(C(=O)COC(=O)c2cc(C3CC3)nc3ccccc23)c(N)n(Cc2ccccc2)c1=O	4%	?	-1&-8	?
CCOC(=O)c1[nH]c2c(c1C)C(=O)CC(c1ccc(N(C)C)cc1)C2 (stereo not drawn)	-18%	7.5%	-2	?
CCOc1ccc(Nc2nc3cc(S(=O)(=O)N(CC)CC)ccc3o2)cc1	-15%	-4.4%	-10	11%
CC(C)C(O)(c1ccccc1)C(CN1CCOCC1)c1ccccc1 (stereo not drawn)	11%	2.8%	/	-5%
C/C(=N/NC(=O)CNC(=O)C1COc2ccccc2O1)c1ccc2c(c1)OCCO2 (stereo not drawn)	-2%	-1.2%	-1	0%
COC(=O)COc1ccc(-c2nccc(-c3ccccn3)n2)cc1	25%	0.1%	/	11%
O=C(CSc1nccc(=O)[nH]1)c1cc2ccccc2o1	-51%	?	-3	35%
